Screens from PubChem BioAssay.
CSC inhib: blocks cancer stem cells; cancer stem cell-like cells viability, luminescence; inhibition, % at 7.5 µM; hit rate 1.1% among 300,000; AID 2717;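 active = mean at 75% or more and at least half the replicates too; inconclusive = mean and replicates disagree; tested in HMLE shEcad cells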;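 also: 0% = median of negative and 100% = median of positive control wells; the first replicate is given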
UUG fidelity: modulators of start codon recognition fidelity in yeast | hit rate 0.13% among 350,000 | S. cerevisiae UUG-firefly luciferase reporter, luminescence/redox ratio | activity score, % at 18.7 µM | AID 602363;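 active = replicate mean at a twofold rise or more, about +100% in these data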;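 also: firefly luciferase made from a UUG start codon reports start codon fidelity; reporter light over untreated wells divided by growth signal over untreated wells; some hits fall short of that in this replicate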
Rce1 inh: blocks yeast Ras-converting enzyme; hit rate 0.27% among 290,000; Q03530; yeast membranes, quenched prenylated peptide cleavage fluorescence; calls only; AID 2563;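 active = fall in fluorescence gain of 50% or more versus controls, with final raw signal at or below 3038400; inconclusive = same 50% fall but final raw signal above 3038400; inactive = fall in fluorescence gain under 50%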;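 also: plate controls were neutral control wells for no effect and wells lacking membranes for full effect; tested at 10 µM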
Target sequence (Q03530 whole entry, looked up): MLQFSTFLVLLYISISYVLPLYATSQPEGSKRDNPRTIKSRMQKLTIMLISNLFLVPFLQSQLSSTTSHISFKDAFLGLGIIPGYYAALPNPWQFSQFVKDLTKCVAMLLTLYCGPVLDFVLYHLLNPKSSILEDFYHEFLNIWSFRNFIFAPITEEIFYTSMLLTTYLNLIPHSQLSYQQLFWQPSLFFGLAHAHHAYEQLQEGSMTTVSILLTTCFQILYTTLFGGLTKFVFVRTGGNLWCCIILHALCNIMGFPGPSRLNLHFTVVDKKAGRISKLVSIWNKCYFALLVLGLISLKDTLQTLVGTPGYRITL
MT1-MMP act inh: inhibitors of human MT1-MMP activation; P50281; HT1080 RFP-PRO-GFP cells, GFP/RFP ratio fluorescence, overnight; percent of plate control window, DMSO zero; GFP/RFP ratio change, % at 20 µM; hit rate 0.061% among 360,000;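 active = GFP/RFP ratio change of at least 30% with cell ATP level not reduced by more than half and red fluorescence within 50% of control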; also: strong numbers were not always called active
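Test system: HT1080 RFP-PRO-GFP cells; Benchmarks: DMSO and RFP-L50D-GFP cell wells; Timing: cells overnight before dosing, compound overnight, 37 °C, 5% CO2; Compound: one 20 µM compound dose with 1% DMSO; Read-out: GFP/RFP fluorescence ratio.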
eIF4H FP inh: inhibitors of RNA binding by human eIF4H | inhibition, % at 35 µM | hit rate 0.94% among 290,000 | eIF4H fluorescence polarization binding assay;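 active = 50% or more with normal probe brightness, or confirmed in later tests; inconclusive = above 50% with abnormal brightness, or retests that disagree; inactive = below 50% or failed in later tests; about a fifth of its hits are not listed in these tables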;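 also: calls also rest on retests at 20 µM and on dose response follow-up; 0% = protein and probe with vehicle and 100% = probe without protein; strong numbers were not always called active; many hits fall short of the cut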
Env fusion inh: inhibitors of HIV Env-mediated cell fusion; HeLa-JRFL Env/CEM21 cell fusion, luciferase; inhibition, % at 12.3 µM; hit rate 1.1% among 360,000;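 active = mean replicate inhibition score of at least 50 and every replicate individually at or above 50; inconclusive = only one of the two criteria met; inactive = mean below 50 and not all replicates reaching 50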;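 also: 0% = plate neutral controls and 100% = maraviroc near 300 nM; one replicate is shown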
PABP FP inh: blocks human PABP binding to poly(A) RNA; fluorescence polarization; inhibition, % at 35 µM; hit rate 1% among 290,000; AID 2014;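 active = 50% or more with normal probe brightness, or confirmed in later tests; inconclusive = above 50% with abnormal brightness, or retests that disagree; inactive = below 50% or failed in later tests; about a fifth of its hits are not listed in these tables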;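 also: calls also rest on retests at 20 µM and on dose response follow-up; controls were probe without protein and protein plus probe with vehicle; some compounds called inactive have numbers as strong as hits; many hits fall short of the cut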
MT1-MMP act inh RFP: also measured in MT1-MMP act inh; calls as there; RFP signal change, %; measured here: RFP expression control read;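 0 = vehicle wells; hits needed this value within 50% of zero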
An asterisk follows results filed as active; i = inactive; ? = inconclusive; nt = not tested or not shown; & = joins results of further samples.

A first look:
No.	SMILES	MT1-MMP act inh RFP	MT1-MMP act inh	Env fusion inh	CSC inhib	eIF4H FP inh	UUG fidelity	Rce1 inh	PABP FP inh
1	N#Cc1ccc(CSc2nc(N)cc(=O)[nH]2)cc1	1	-2	7	-17	-4	-23	i	3
2	CCOC(=O)/C(=N\NC(=O)c1ccccc1)c1ccccc1	0	7	4	-12	-3	0	i	-7

The listing (from the top)
No.	SMILES	MT1-MMP act inh RFP	MT1-MMP act inh	Env fusion inh	CSC inhib	eIF4H FP inh	UUG fidelity	Rce1 inh	PABP FP inh
1	N#Cc1ccc(CSc2nc(N)cc(=O)[nH]2)cc1	1	-2	7	-17	-4	-23	i	3
2	CCOC(=O)/C(=N\NC(=O)c1ccccc1)c1ccccc1	0	7	4	-12	-3	0	i	-7
3	CC12CC(O)C3c4ccc(O)cc4CCC3C1CCC2=O (centres undefined)	-2	2	17	-4	-3	-7	i	-9
4	CC(C)C(=O)N1CCC1(C)C(=O)NS(=O)(=O)c1cccs1 (centres undefined)	0	-2	-10	nt	nt	-15	nt	nt
5	CN(C)CC(C)(C)CNS(=O)(=O)c1ccc(Cl)c(Cl)c1	1&1	-6&4	-16&12	10	-3&-7	-14	i	5&0
6	Cc1ccc(NC(=O)CCNS(=O)(=O)c2ccc3c(c2)CCC(=O)N3)c(Br)c1	-3	-1	-21	3	1	-17	i	-17
7	O=C1c2ccccc2NC(c2ccc([N+](=O)[O-])cc2)N1O (centres undefined)	0	1	8	16	-2	7	i	-3
8	Cc1cc(C(=O)NC(CC(C)C)C(=O)O)cc(C)c1[N+](=O)[O-] (centres undefined)	-1	-2	-12	-2	-21	5	i	-13
9	Cc1ccc(C(C)C)c(OCC(=O)NN=C2CCCC2)c1	4	2	0	4	5	nt	i	6
10	COC(=O)c1cc(NC(=O)CC2CCCC2)cc(C(=O)OC)c1	2	-1	11	-2	2	-1	nt	-3
11	NC(=O)C1CCN(C(=O)CCC(=O)c2ccc(Br)cc2)CC1	1	0	-45	-7	-4	-36	i	-2
12	CC(C)CCNC(=O)NC(=O)COC(=O)c1cc(S(=O)(=O)N2CCOCC2)ccc1N1CCCCC1	-2	0	-22	-3	-5	-7	i	2
13	CCOC(=O)N1CCN(c2ccc(C(F)(F)F)cn2)CC1	-4	5	4	14	11	-18	i	-5
14	Cc1cccc(N(CC(=O)NC2CCCC2)C(=O)CCCC(=O)Nc2ccccn2)c1	3	1	nt	-5	0	nt	i	-1
15	COc1ccc(Cc2c(O)nc(SCC(=O)N3CCCCCC3)[nH]c2=O)cc1	0	-2	8	1	-5	-8	i	-7
16	O=C(O)CCC(=O)N1CCc2cc(S(=O)(=O)N3CC=C(c4ccccc4)CC3)ccc21	5	8	46	-9	3	-3	i	8
17	CCC[C@@H](CN1CCC[C@H]1CN1C(N)=NC[C@H]1CC(C)C)N1C[C@@H]([C@H](C)CC)N(CCCC2CCCC2)C1=N	4	4	13	nt	nt	-14	nt	nt
18	COc1ccc(C(=O)CSc2nnc(CNc3ccc(C)cc3C)n2Cc2ccco2)cc1	-2	1	-42	9	-3	-1	i	-5
19	CC(C)N(C(=O)[C@H]1CC(CC(=O)NCc2cccc(C(F)(F)F)c2)C(=O)N2CCc3c([nH]c4ccccc34)[C@]12C)C(C)C (some centres undefined)	-30	-26	3	nt	nt	-11	nt	nt
20	CC1(c2ccc3ccccc3c2)NC(=O)N(CC(=O)O)C1=O (centres undefined)	3	2	-17	1	-8	nt	i	17
21	Clc1ccccc1N=C1SCCS1	4	1	-9	-1	-8	-14	i	8
22	O=C(CN1CCC(n2nnc3cc(F)ccc32)CC1)N1CCCc2ccccc21	2	1	9	17	0	nt	i	-2
23	CCOc1cc(CO)c(Br)cc1OCC(=O)O	nt	nt	-8	-2	10	nt	i	16
24	FC(F)(F)c1ccc(-n2ccnc2)nc1	1	-3	nt	2	-7	-1	i	2
25	COc1ccccc1C(=O)NC(=O)COC(=O)CCNS(=O)(=O)c1ccccc1	0	-2	6	0	nt	-12	i	nt
26	COc1ccccc1N(C)C(=O)c1cc(S(=O)(=O)N2CCc3ccccc32)cn1C	-6	5	16	-6	-9	8	i	-5
27	Cc1cc(C)cc(NC(=O)CSc2nc(=O)n(CCN3CCOCC3)c3c2CCCC3)c1	3	2	8	-10	nt	nt	i	nt
28	COc1ccc(/C=C/C(=O)Nc2nc(C)c(C(=O)N(C)C)s2)cc1OC	5	0	14	2	-11	-5	i	3
29	Cc1ccc(C(=O)c2cc3ccccc3o2)cc1C	3	0	nt	-3	7	nt	i	-10
30	Cc1nc2c(-c3ccc(F)cc3)c(C)[nH]n2c(=O)c1Cl	7	16	-5	30	-6	-10	i	5
31	COc1ccc(NC(=O)c2c(C(F)(F)F)nn(C)c2Cl)cc1	0	2	-8	-7	-1	nt	i	2
32	CC1Cc2nc(SCC(=O)N3CCc4ccccc43)n(C)c(=O)c2S1 (centres undefined)	-5	2	nt	-5	-4	nt	i	-7
33	CC1=C(C#N)C(=O)N(C2CCS(=O)(=O)C2)C(=O)/C1=C\c1ccco1 (centres undefined)	nt	nt	nt	-2	102*	nt	i	88*
34	CC(C)CN1CCN(Cc2cccc3cccnc23)CC1CCO (centres undefined)	-1	-3	7	26	-3	-17	i	-4
35	COc1cc(/C=C2\SC(=S)N(Nc3ncc(C(F)(F)F)cc3Cl)C2=O)cc(OC)c1OC	3	25	2	-1	-8	-15	i	-9
36	COCCn1c(N)c(N(Cc2ccccc2)C(=O)C2=COCCO2)c(=O)[nH]c1=O	4	-1	10	17	0	-6	i	21
37	O=C(N/C(=C/c1cccc([N+](=O)[O-])c1)C(=O)N1CCCCC1)c1cccs1	1	-2	24	-8	0	nt	i	-6
38	Nc1nc2c(s1)COc1ccccc1-2	3	-7	-8	nt	-6	-23	i	4
39	Cn1c(=O)cc(OCCCC(=O)NCc2ccco2)c2ccccc21	10	8	-78	0	-7	11	i	0
40	CCc1c(C)c2c(C)nn(-c3ccccc3)c2oc1=O	1	6	-47	5	-9	-7	i	-3
41	CCCCOC(=O)C1[C@H]2C(=O)N(Cc3cccs3)C[C@]23C=C[C@H]1O3 (some centres undefined)	4	4	5	-12	-6	9	i	-2
42	CCCOc1ccc(C(=O)CCC(=O)NNC(=O)c2ccncc2)cc1	0	-2	15	-8	-8	-12	i	-1
43	CCC(C)C(NC(=O)C1CCC(C)CC1)C(=O)NC(C(=O)OC)C(C)C (centres undefined)	-2	-6	nt	-8	-2	3	i	-6
44	COc1ccc(CCN=C(N)NS(=O)(=O)c2ccccc2)cc1OC	4	2	20	-1	-3	nt	i	-13
45	N=c1c(S(=O)(=O)c2ccc(Cl)cc2)cc2c(=O)n3ccccc3nc2n1C1CCCCC1	-6	-1	21	-8	-4	-5	i	6
46	Cc1cc(=O)c2cc(Br)ccc2[nH]1	0	2	-49	-2	8	-15	i	-5
47	CCOC(=O)Cc1csc(NC(=O)CSc2nnc(-c3cccnc3)n2Cc2ccco2)n1	3	3	-23	9	21	nt	i	12
48	CC1CCN(S(=O)(=O)c2ccc(C(=O)Nc3nnc(-c4ccco4)o3)cc2)CC1	-6	-6	33	17	12	-29	i	-11
49	Cc1[nH]n(-c2c(Cl)cc(Cl)cc2Cl)c(=O)c1C=Nc1ccc(S(=O)(=O)N2CCOCC2)cc1	7	3	nt	-11	4	nt	i	10
50	O=C(Nc1ccc(Cl)c(S(=O)(=O)N2CCCCC2)c1)c1cnccn1	-6	4	-8	nt	nt	1	nt	nt
51	Cn1c(=O)c2c(nc(NCCCN3CCOCC3)n2Cc2cccc(Cl)c2)n(C)c1=O	0	-2	-24	-4	-14	-1	nt	-9
52	O=C(c1cc(-c2ccco2)nc2ccccc12)N1CCN(c2ccc(F)cc2)CC1	-5	-2	-12	-7	-9	nt	i	-10
53	O=C(CC(=O)N/N=C/c1ccc(C(=O)O)cc1)NCCc1ccccc1	1	2	-19	-14	-6	-3	i	-2
54	Cc1cc(NC(=O)COc2c(C)cccc2C)no1	8	2	-11	-7	-5	-15	i	-4
55	Nc1cccnc1Oc1ccc(F)cc1	3	1	-1	-6	4	nt	i	-2
56	O=c1c2ccccc2ncn1-c1ccc([N+](=O)[O-])cc1[N+](=O)[O-]	-6	8	-1	24	2	-9	i	-3
57	COc1cc(/C=C2/SC(N)=NC2=O)ccc1Oc1ccc([N+](=O)[O-])cc1[N+](=O)[O-]	-5	-13	11	-11	4	-20	i	-4
58	C=CCn1c(CCc2cc(C(C)(C)C)c(O)c(C(C)(C)C)c2)n[nH]c1=S	-8	-7	8	nt	0	nt	i	-14
59	COc1ccccc1-c1oc2ccccc2c1-c1ccccc1OC	-6	-1	14	23	nt	-23	nt	nt
60	Nc1nnc(N2CCc3ccccc32)s1	10	15	-2	-25	-2	-15	i	-14

Following part:
No.	SMILES	MT1-MMP act inh RFP	MT1-MMP act inh	Env fusion inh	CSC inhib	eIF4H FP inh	UUG fidelity	Rce1 inh	PABP FP inh
61	CC12COC3(C(N)=O)CC1CCC32C (centres undefined)	1	-3	1	-11	-8	nt	i	-10
62	Cc1cc(NC(=O)c2cncc(Br)c2)n(-c2ccccn2)n1	-1	-7	nt	nt	-8	-23	i	2
63	CNCCCOc1ccc2c(c1)CCC2	-2	-1	-14	-8	5	4	i	1
64	Cc1ccccc1-c1cnc(C(O)c2ccc(Cl)cc2C)[nH]1 (centres undefined)	-2	2	-5	nt	nt	-13	nt	nt
65	COc1cc(NS(=O)(=O)c2ccc(NC(=O)COc3ccccc3Cl)cc2)nc(OC)n1	nt	nt	-19	-1	8	nt	i	9
66	COC(=O)c1ccc(N=NNc2ccc(C(=O)OC)cc2)cc1	4	-1	-3	0	1	-5	i	-7
67	Cc1ccc(C(=O)N/C(=C\c2ccc(-c3cccc([N+](=O)[O-])c3)o2)C(=O)NCCCN(C)C)cc1	-2	1	-10	12	9	-10	i	0
68	Cc1cc(C(=O)OCC(=O)Nc2cc(C(F)(F)F)ccc2N2CCOCC2)c(C)o1	-2	-15	?	-8	-11	-8	i	-10
69	CC(=O)c1ccc(NC(=O)CSc2nnc(NC(=O)C3CC3)s2)cc1	0	-2	nt	-13	-8	19	i	10
70	Cc1cc(C)c(S(=O)(=O)N(C)CC(=O)N2CCCCC2)c(C)c1	4	1	nt	8	-9	-8	i	6
71	CC(Oc1ccc(Cl)cc1)C(=O)Nc1cccc(S(=O)(=O)N2CCCC2)c1 (centres undefined)	8	0	2	nt	nt	-4	nt	nt
72	CN(C)S(=O)(=O)c1ccc(Cl)c(NC(=O)CN2CCc3ccccc3C2)c1	-11	-4	6	-8	9	nt	i	-2
73	Cc1nnc(SCC2=C(C(=O)O)N3C(=O)C(NC(=O)Cc4ccccc4)C3SC2)s1 (centres undefined)	3	-6	nt	-6	nt	-3	nt	nt
74	Cc1ccc(S(=O)(=O)N2CCCC(C(=O)NCC(C)C)C2)cc1 (centres undefined)	-2	3	-6	-3	-4	nt	i	1
75	S=c1[nH]nc(C2CCCCC2)n1/N=C/c1cccc(Cl)c1Cl	0	1	27	55	2	-17	i	10
76	CCOc1ccc(-c2noc(CCCC(=O)NCC3CCCO3)n2)cc1OC (centres undefined)	-2	-2	14	8	-4	-6	i	-6
77	Cc1cccn2c(=O)c3cc(C(=O)NC4CCS(=O)(=O)C4)sc3nc12 (centres undefined)	5	4	-4	-13	-1	-1	i	-5
78	C/C(=N\NC(=O)c1ccc(CN2CCOCC2)cc1)c1cccc([N+](=O)[O-])c1	1	1	-38	-2	-10	nt	i	?
79	Cc1ccc(-c2csc(NCCc3nc4cc(Cl)c(Cl)cc4n3CCOCCO)n2)cc1	-7	5	33	33	nt	-15	i	nt
80	CC(C)NC(=O)N1CCC(n2nccc2NC(=O)CCOc2ccccc2)CC1	2	1	3	-2	-5	7	i	10
